# RecA intein inh – Mtb RecA intein splicing inhibitors, primary screen, biochemical, fluorescence, HTS | Protein RecA (Mycobacterium tuberculosis (strain ATCC 25618 / H37Rv)), P9WHJ3 | cell-free RecA intein splicing | inhibition, %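 (about 9 µM by stock and volumes)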 | hit rate 0.75% among 290,000; in the data active = inhibition above about 30%;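 note: 0% = vehicle wells and 100% = reference inhibitor control wells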
# Target sequence (P9WHJ3 whole entry, looked up): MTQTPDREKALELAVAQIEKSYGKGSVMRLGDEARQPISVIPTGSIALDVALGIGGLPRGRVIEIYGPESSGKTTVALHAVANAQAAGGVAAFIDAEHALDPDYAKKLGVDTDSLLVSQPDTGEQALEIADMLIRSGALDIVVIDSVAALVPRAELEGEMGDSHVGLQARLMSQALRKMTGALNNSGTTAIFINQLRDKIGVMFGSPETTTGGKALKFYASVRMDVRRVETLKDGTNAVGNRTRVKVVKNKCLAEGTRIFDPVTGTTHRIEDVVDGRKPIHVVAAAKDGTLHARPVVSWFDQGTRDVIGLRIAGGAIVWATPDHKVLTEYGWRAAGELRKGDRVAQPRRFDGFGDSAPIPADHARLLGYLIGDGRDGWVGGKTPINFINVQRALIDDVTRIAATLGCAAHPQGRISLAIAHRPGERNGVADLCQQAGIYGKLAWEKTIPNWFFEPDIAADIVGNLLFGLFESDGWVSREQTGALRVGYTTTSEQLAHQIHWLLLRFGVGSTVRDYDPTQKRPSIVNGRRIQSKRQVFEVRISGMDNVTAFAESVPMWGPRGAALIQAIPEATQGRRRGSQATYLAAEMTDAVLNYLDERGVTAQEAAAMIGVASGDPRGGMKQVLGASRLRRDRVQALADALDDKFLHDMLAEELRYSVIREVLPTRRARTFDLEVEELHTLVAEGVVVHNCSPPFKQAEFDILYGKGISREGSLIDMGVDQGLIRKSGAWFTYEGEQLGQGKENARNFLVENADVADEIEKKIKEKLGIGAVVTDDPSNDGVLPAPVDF
# Mtb bLac sens – beta-lactam sensitization of Mtb H37Rv, H37Rv; M. tuberculosis H37Rv growth with meropenem, percent inhibition; hits of this screen are not shown here; hit rate 0.27% among 330,000; inhibition, % at 25 µM;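 active = about 74% or more and at least 40 points above the plate without the antibiotic, then above 30% in a dose series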;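 note: growth measured after seven days incubation then overnight dye step; 0% = bacteria only wells and 100% = bacteria with antibiotic; twin plates without the antibiotic show which effects depend on it; some results filed as inactive read as strong as hits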
# Arbovirus inh – antivirals against arbovirus infection, primary screen, cell-based, full library, 10K replicate subset. arbovirus infection cell-based antiviral screen. inhibition, % at 10 µM. hit rate 0.37% among 200,000;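 active = inhibition from about 30%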;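 note: bluetongue infection of BSR cells; cell survival read as ATP light after 72 h; 0% = infected wells without compound and 100% = uninfected wells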
# YopH inh – YopH tyrosine phosphatase inhibitors, primary screen, biochemical, fluorescence Ex485/Em525. inhibition, %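 (about 10 µM by stock and volumes)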. hit rate 0.16% among 140,000. YopH tyrosine phosphatase [Yersinia enterocolitica];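 active = inhibition of 50% or more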;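 note: controls were vehicle for no effect and minimum signal wells for full effect; inactives centre near -20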
# Mtb growth – M. tuberculosis H37Rv growth inhibitors, H37Rv strain (AID 1626); M. tuberculosis H37Rv growth inhibition; higher % means a stronger effect; hit rate 0.95% among 220,000; inhibition, % at 10 µM; hits with a dose series show IC50 in µM;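 active = confirmed in a dose series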;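 note: bacteria incubated seven days before Alamar blue readout; 0% = bacteria only wells and 100% = bacteria with antibiotic wells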
# Arbovirus inh repeat – second read-out of Arbovirus inh, no call of its own (marks repeat the call); inhibition, %; measured here: 10K subset replicate screen; many hits read low in the repeat;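 first of two repeat runs on a subset; 0% = infected and 100% = uninfected wells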
# Active calls of the source: *; · = not tested or not shown. Not all compounds are listed; the hit share may differ from the screen's.
SMILES,RecA intein inh,Mtb bLac sens,Arbovirus inh,YopH inh,Mtb growth,others
CCN(C(=O)CSc1ncnc2sc(C)c(C)c12)C1CCS(=O)(=O)C1 (centres undefined),-0.8,-6,-3,·,-2%,
Cc1ccc(C(=O)N/C(=C\c2ccco2)C(=O)NC2CCS(=O)(=O)C2)cc1 (centres undefined),3.4,-6,·,·,0%,
O=C(C(=O)N1CCN(c2cccc(Cl)c2)CC1)c1c[nH]c2ccccc12,7.6,-4,-2,·,3%,
CC(C)=C1C2C=CC1C(C(=O)Nc1cccc(C)c1)C2C(=O)O (centres undefined),-1.6,-2,-2,-33,-9%,
COc1cc(-c2nnc(COC(=O)c3nn(CC(C)C)c(=O)c4ccccc34)o2)cc(OC)c1OC,-2.4,-9,·,·,·,
CC(C)C(c1nnnn1Cc1ccccc1)N1CCN(Cc2ccco2)CC1 (centres undefined),-1.0,-3,1,-8,5%,
Cc1ccccc1-c1nc(CN2CCC(C(=O)O)CC2)c(C)o1,1.2,1,5,-34,-2%,Arbovirus inh repeat=5
COc1ccccc1C(=O)NC(=O)COC(=O)c1cc[n+]([O-])cc1,-2.1,-4,·,·,·,
COc1ccc(CCN2C(=O)C(C)=C(C)C2=O)cc1OC,-4.3,-4,·,·,·,
CCOc1ccc(N(C)S(=O)(=O)c2csc(C(N)=O)c2)cc1,3.2,-2,·,·,·,
O=C(CCCC1=NS(=O)(=O)c2ccccc2N1)N1CCN(c2ccc(Cl)cc2)CC1,-13,7,0,-28,·,Arbovirus inh repeat=2
Cc1[nH]nc2c1C(c1ccsc1)C(C#N)=C(N)O2 (centres undefined),83*,-18,4,-11,-2%,
O=c1[nH]c(=S)[nH]c2sccc12,-9.4,-5,2,·,4%,
O=c1c2c(-c3ccccc3)ccnc2[nH]n1-c1ccccc1,-0.6,6,·,·,·,
Cc1ccc(S(=O)(=O)Nc2ccccc2F)cc1C(=O)NNC(=O)c1ccccc1O,18,-6,·,·,·,
CCOc1ccc(S(=O)(=O)NCCC(=O)N2CCN(c3ccc(OC)cc3)CC2)cc1,-1.6,2,2,·,-8%,
C1=Cc2ccccc2Nc2ccccc21,0.4,-1,·,·,-4%,
CCn1c(=O)cc(OCC(=O)NCc2cccnc2)c2ccccc21,-1.7,-11,-3,-31,-13%,
COc1cccc(-n2c(C)nc3c(cnn3-c3ccc(C)cc3)c2=O)c1,1.1,1,9,-14,-5%,
CN(Cc1c(C(=O)N(C)Cc2ccccc2)nc2ccccn12)CC1Cc2ccccc2O1 (centres undefined),2.4,-7,2,·,1%,
Fc1ccc(Oc2nc(-c3ccccc3)nnc2C(F)(F)F)cc1,62*,16,-7,-32,-4%,
CN(Cc1cccc(Cl)c1Cl)C(=O)c1ccc(NC(=O)CC#N)cc1,-4.2,3,-4,-29,·,
COc1ccc(-c2nnc(SCC(=O)Nc3ncc(C)s3)n2-c2ccccc2)cc1OC,1.7,-2,-11,-24,-5%,
COCCn1c(Cc2ccccc2)nnc1SCc1ccc([N+](=O)[O-])cc1,0.4,2,20,-20,2%,
CC(C)(C)NC(=O)NC(=O)COC(=O)CCC1CCCCC1,2.0,-3,2,-25,8%,
# The results go on:
SMILES,RecA intein inh,Mtb bLac sens,Arbovirus inh,YopH inh,Mtb growth,others
CCC(=Nc1ccccc1O)C1=C(O)CC(c2ccccc2)CC1=O (centres undefined),3.0,98,·,·,1.5µM*,
COc1ccc(C2C(C#N)=C(N)Oc3cc(O)ccc32)cc1C (centres undefined),-14,1,·,·,·,
CCCN1CCN(C(c2cc3cc(OCC)ccc3[nH]c2=O)c2nnnn2C2CCCCC2)CC1 (centres undefined),-2.5,-5,10,-37,3%,
CCOc1ccccc1NC(=O)N1CCC(c2nc3ccc(C)cc3[nH]2)CC1,-0.8,89,-17,-43,11%,
CC(NC(=O)CSc1nnc(COc2ccccc2)o1)c1ccccc1 (centres undefined),4.3,-2,-6,-36,3%,
Cc1ccc(S(=O)(=O)Nc2cc(C(=O)Nc3cc(C)cc(C)c3)ccc2Cl)cc1,14,-10,2,-14,-7%,
CSc1ccc(S(=O)(=O)Nc2ccc3c(c2)NC(=O)CC3)cc1,-1.1,-3,27,·,3%,
COC(=O)c1cnc(Oc2ccc(NC(=O)NC(=O)c3ccccc3Cl)cc2)cc1C(F)(F)F,1.2,-9,·,·,-6%,
O=Cc1ccccc1OCc1ccc2c(c1)OCO2,2.6,-9,·,·,·,
COC(=O)c1cc(NC(=O)c2cccc(C(F)(F)F)c2)c(=O)oc1C/C=N/OCc1cccc(Cl)c1Cl,2.5,7,7,-44,-9%,
O=C(N/N=C/c1ccc([N+](=O)[O-])cc1)c1[nH]ncc1Br,-1.6,-6,-3,·,4%,
C[C@H]1O[C@@H](O[C@H]2[C@@H](O)C[C@H](O[C@H]3[C@@H](O)C[C@H](O[C@H]4CC[C@@]5(C)[C@H](CC[C@@H]6[C@@H]5CC[C@]5(C)[C@@H](C7=CC(=O)OC7)CC[C@]65O)C4)O[C@@H]3C)O[C@@H]2C)C[C@H](O)[C@@H]1O,·,·,11,-24,-6%,
O=C(c1ccccc1F)c1cn(Cc2ccccc2)c2ccccc12,-0.6,51,13,-27,13%,
COc1ccc(/C=C/c2ccncc2)cc1,1.3,12,-9,18,-1%,
CSc1nsc(SCC(=O)Nc2cccc(C(=O)O)c2)n1,0.4,10,·,·,·,
COC(=O)c1cccc(NC(=O)CSc2nc(=O)cc(N)n2-c2ccccc2)c1,4.8,2,5,-22,-9%,
NNC(=O)C(Cc1cnc[nH]1)NC(=O)OCc1ccccc1 (centres undefined),-2.3,-3,·,·,·,
O=C(Cn1ncc2c1-c1ccccc1OC2)N1CCN(Cc2ccc3c(c2)OCO3)CC1,0.2,0,-5,-37,9%,Arbovirus inh repeat=-6
CCCCNC(=O)C1CCC(CNS(=O)(=O)c2ccc(NC(C)=O)cc2)CC1 (centres undefined),-0.9,0,5,-26,-4%,
O=C1CCSc2ccc(Cl)cc2N1Cc1ccc(Cl)cc1,25,-4,-18,-41,0%,
Cc1nc(CS(=O)(=O)c2ccc(Cl)cc2)cc(Sc2ccccc2Cl)n1,3.7,8,-9,-25,5%,
Cc1cc(S(=O)(=O)N2CCCOC2CNC(=O)C(=O)NCc2cccs2)ccc1F (centres undefined),2.6,-8,·,·,·,
COc1cnn(-c2ccccc2)c(=O)c1OC,-5.4,-3,·,·,-9%,
Cn1cc([N+](=O)[O-])c(C(=O)N/N=C\c2c[nH]c3ccccc23)n1,-2.5,-7,8,·,-2%,
CN1C(=O)c2cccc3c(S(N)(=O)=O)ccc1c23,-200,11,·,·,·,
# Next entries
SMILES,RecA intein inh,Mtb bLac sens,Arbovirus inh,YopH inh,Mtb growth,others
COc1ccccc1NC(=O)CCc1nnc2ccc(NCc3ccco3)nn12,0.7,6,·,·,·,
CCn1ncc([N+](=O)[O-])c1C(=O)Nc1ccc(C(=O)N2CCCCC2)cc1,-0.8,-4,6,-19,4%,
COc1ccc(C(=O)Nc2ccc(N3CCC(C)CC3)cc2)cc1Br,-0.8,2,-3,·,0%,
CCCCCCCC(=O)NNC(=O)c1c(O)c2ccccc2n(CC)c1=O,-0.6,-3,0,·,1%,
CCCCC(=O)c1ccc(O)cc1,5.9,98,-4,-9,15µM*,
CNCC(C)c1ccccc1 (centres undefined),1.3,7,1,·,-4%,
CC(C)NC(=O)CCCn1c(=S)[nH]c2cc3c(cc2c1=O)OCO3,-0.5,8,7,-44,-6%,
COc1ccc(-c2oc3ncn(Cc4ccco4)c(=N)c3c2-c2ccc(OC)cc2)cc1,10,93,-13,-15,8.4µM*,
CCOc1ccc2oc(=O)cc(CN3CCOCC3)c2c1,-2.9,-3,·,·,·,
CCOC(=O)C1CCN(C(=O)COc2ccc(S(=O)(=O)N3CCOCC3)cc2)CC1,-0.5,-16,·,·,·,
O=c1cc(N2CCCCC2)c(-c2ccccc2)nn1Cc1ccc(Cl)cc1,0.8,-10,-25,-24,6%,
O=C(/C=C\c1ccco1)c1ccc(NC(=O)c2ccco2)cc1,8.2,-8,-8,·,-3%,
COC(=O)c1sccc1NC(=O)c1c(C)c(-c2cccc(Cl)c2)nc2ccccc12,1.7,-5,9,-8,0%,
CC(=O)C1=C(c2ccccc2)NC(=O)NC1c1ccccc1OCC(=O)Nc1ccccc1 (centres undefined),-1.4,0,-2,10,-6%,
CC(=O)N(C1=NCCCS1)c1ccccc1Cl,-1.1,5,0,·,-3%,
CC(=O)Nc1ccc(S(=O)(=O)N2CCC(N(C)CCC(C)C)CC2)cc1,0.1,-8,0,-37,-8%,
Cc1nn(-c2ccc(Cl)cc2)c2sc(C(=O)N3CCN(c4ccccn4)CC3)cc12,-2.0,2,-4,-101,-3%,
O=S(=O)(Nc1nc2ccccc2nc1N1CCc2ccccc2C1)c1ccc(Br)cc1,·,-6,5,-27,11%,
Cc1ccsc1C1Nc2ccc3ncccc3c2C2=C1C(=O)CC(C)(C)C2 (centres undefined),8.0,33,1,4,2%,
C#C[C@]1(O)CC[C@H]2[C@@H]3CCC4=C(CCC(=O)C4)[C@H]3CC[C@@]21C,5.0,99,-12,-28,-3%,
COc1c(O)c(=O)n2c3ccccc3c3ccnc1c32,-1.4,-7,·,·,·,
O=C(OCCC1Oc2cccnc2NC1=O)c1ccc([N+](=O)[O-])cc1 (centres undefined),1.4,13,0,·,-3%,
CC(=O)c1cccc(N(C(=O)CNC(=O)c2ccco2)C(C(=O)NC2CCCC2)c2ccncc2)c1 (centres undefined),2.2,4,·,·,·,
COc1ccccc1NC(=O)CCc1c(C)[nH]c(=O)c(C#N)c1C,-1.7,25,1,-48,-11%,
C=CCc1cccc(/C=N/NC(=O)CCCNc2ccc(C)cc2)c1O,-3.2,1,-27,-20,-4%,
# Further compounds.
SMILES,RecA intein inh,Mtb bLac sens,Arbovirus inh,YopH inh,Mtb growth,others
COc1ccc(OC)c(NC(=O)CC2SC(=N)N(c3ccccc3)C2=O)c1 (centres undefined),-0.3,-8,-4,·,-4%,
O=C(OC1CCOC1=O)c1ccc(Cl)c(S(=O)(=O)N2CCCCC2)c1 (centres undefined),0.8,2,2,·,3%,
CC(OC(=O)Cn1cnc2ccccc2c1=O)C(=O)N(C)c1ccccc1 (centres undefined),-2.1,-13,·,·,·,
NC/C(=N\O)c1ccc(Cl)cc1Cl,3.1,2,13,-33,-2%,Arbovirus inh repeat=10
Cn1c(=O)cc(OCCCC(=O)NCc2ccc(F)cc2Cl)c2ccccc21,·,5,-7,·,-9%,
O=C(Nc1ccccc1SCC1CSc2nc3ccccc3c(=O)n21)c1cccc(Cl)c1 (centres undefined),-0.8,-7,24,-38,5%,

# Screening data (PubChem BioAssay)
